PV pol inh = poliovirus RdRp elongation inhibitors, primary screen, biochemical, fluorescence polarization, total intensity. Genome polyprotein (Poliovirus type 1 (strain Mahoney)), P03300. poliovirus polymerase elongation; stronger effect = lower value. hit rate 0.66% among 150,000. % elongation, % (compound at 16.7 µg/mL); in the data active = % elongation below about 90%; note: some results filed as inactive read as strong as hits
Target sequence (P03300 1749-2209 limits assumed): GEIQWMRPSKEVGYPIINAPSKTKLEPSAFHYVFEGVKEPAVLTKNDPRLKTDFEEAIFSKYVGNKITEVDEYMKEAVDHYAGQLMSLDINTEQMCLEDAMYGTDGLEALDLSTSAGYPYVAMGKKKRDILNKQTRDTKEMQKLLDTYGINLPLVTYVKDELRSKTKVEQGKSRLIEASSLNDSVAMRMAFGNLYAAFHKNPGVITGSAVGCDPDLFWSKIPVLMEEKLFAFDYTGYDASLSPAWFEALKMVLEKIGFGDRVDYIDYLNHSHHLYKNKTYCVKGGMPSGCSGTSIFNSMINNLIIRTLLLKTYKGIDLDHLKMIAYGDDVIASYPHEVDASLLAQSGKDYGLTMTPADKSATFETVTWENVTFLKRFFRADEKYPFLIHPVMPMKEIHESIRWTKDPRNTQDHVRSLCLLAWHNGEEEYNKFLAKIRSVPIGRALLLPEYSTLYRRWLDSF
MbtI inh = MbtI salicylate synthase inhibitors, primary screen, biochemical, fluorescence intensity. purified MbtI enzyme, fluorescence intensity read-out. inhibition, %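 (about 17 µg/mL by stock and volumes)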. hit rate 0.89% among 100,000. AID 493033, 2011;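 active = above 50% in both replicates, above 80% if mildly self-fluorescent; inactive = the rest, strongly fluorescent compounds included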;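 note: 0% = mean of negative and 100% = mean of positive controls; one replicate is shown; some compounds called inactive have numbers as strong as hits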
Mtb MenB inh = M. tuberculosis MenB inhibitors, primary screen, biochemical, absorbance. AID 540299, 2011. hit rate 0.43% among 100,000. inhibition, %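 (about 12 µg/mL by stock and volumes)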. MenB enzyme assay, absorbance read-out; some hits fall short of the stated cut. 1,4-dihydroxy-2-naphthoyl-CoA synthase (Mycobacterium tuberculosis (strain ATCC 25618 / …;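 active = mean of two replicates above 30%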;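 note: 0% = no compound and 100% = wells with inactive enzyme; the first replicate is given; strong numbers were not always called active; inactives centre near -10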
Target sequence (P9WNP5 whole entry, looked up): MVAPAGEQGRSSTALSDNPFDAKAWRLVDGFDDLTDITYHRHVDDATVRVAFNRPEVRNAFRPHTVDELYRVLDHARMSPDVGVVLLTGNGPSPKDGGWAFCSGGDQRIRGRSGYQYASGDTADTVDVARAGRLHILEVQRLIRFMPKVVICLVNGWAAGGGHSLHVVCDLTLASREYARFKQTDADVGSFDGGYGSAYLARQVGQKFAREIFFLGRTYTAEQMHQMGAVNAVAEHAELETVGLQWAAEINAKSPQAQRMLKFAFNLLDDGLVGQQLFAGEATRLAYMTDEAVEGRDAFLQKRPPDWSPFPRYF
PV pol inh intensity = further read-out of PV pol inh, marked with its call; % elongation; measured here: total intensity read-out; formula for this scale not given here;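 total fluorescence in place of polarization; lower means less elongation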
* = called active by the depositor; i = inactive; · = not tested or not shown; & = joins results of further samples.

SMILES	PV pol inh	PV pol inh intensity	MbtI inh	Mtb MenB inh
O=C(O)c1nccnc1C(=O)N1CCN(c2nc3ccc(Cl)cc3s2)CC1	100	98	-7	-4
O=c1c2cc(Cl)ccc2nc2n1CCC2	102	102	-16	-5
O=C(Oc1ccc2ccc(=O)oc2c1)c1ccccc1	103	107	-91	-7
C=CCNC(=O)C1CCN(S(=O)(=O)CC)CC1	103	104	2	-30
CN(C)C=Nc1ccc(Oc2cncc(Cl)c2)nc1	121	100	-11	-11
Cc1ccc(C(=O)N2C3=C(CCCC3)C(=O)NC23CCCCC3)cc1	100	104	8	8
Cc1ccc(S(=O)(=O)N2C(=O)CCC2C(=O)O/N=C(\N)c2ccccn2)cc1 (stereo unspecified)	102	101	-11	-38
COc1ccc(CCn2c(N)c(Br)c(=O)[nH]c2=O)cc1OC	99	103	-14	-84
Clc1ccccc1CN1CCN(Cc2ccco2)CC1	100	102	-6	15
C#CCN1C(=O)S/C(=C/c2cc(C)n(-c3cccc(I)c3)c2C)C1=O	98	102	-5	-92
N#CCCN1CCCC2(CCCC2)C1	105	109	·	-11
CCOC(=O)N1CCC(NC(=O)c2cc(C)on2)CC1	107	102	-2	-12
C=CCN1CC(c2nc3ccccc3n2CC(C)C)CC1=O (stereo unspecified)	101	105	-9	-3
COC(=O)C1CCN(C(=O)Cn2c(=O)cnc3ccccc32)CC1	109	102	88	14
CN[C@@H]1C2CN3CCC(O2)[C@@H]13 (stereo partly specified)	98	102	3	13
N#Cc1c(NC(=S)NC(=O)c2ccco2)sc2c1CCCC2	102	101	20	-89
CN1/C(=C\C(=O)CN2CCOCC2)C(C)(C)c2ccccc21	103	104	-39	-19
Cc1ccc(S(=O)(=O)c2ccc(-n3ncc(C#N)c3N)cc2)cc1	105	106	8	-27
COc1ccc(-c2nc3c(cc2C#N)c(=O)n(C)c(=O)n3CC(C)C)cc1	97	98	-487	6
Cc1cccc(OCC(=O)Nc2ccc(NC(=O)c3ccco3)cc2)c1	100	103	-4	-23

Part of the list above, showing only Mtb MenB inh:
molecule	Mtb MenB inh
C=CCNC(=O)C1CCN(S(=O)(=O)CC)CC1	-30
CN(C)C=Nc1ccc(Oc2cncc(Cl)c2)nc1	-11

Other compounds follow.
SMILES	PV pol inh	PV pol inh intensity	MbtI inh	Mtb MenB inh
COC(CNC(=O)Cn1nc(-c2ccccc2)c2cc(Cl)ccc21)OC	99	101	7	7
COCCN1Cc2cccc(C(=O)Nc3ccc4c(C)cc(=O)oc4c3)c2C1=O	103	107	-22	-2
O=C(NCCc1ccccc1)c1cc(-c2ccccc2)on1	101	104	-12	3
CNC(=O)O/N=C/c1nn(C(=O)C(C)(C)C)cc1Br	100	96	10	8
CCNc1ccc(P(=S)(N(C)C)N(C)C)cc1	102	107	5	2
Cc1c(N=Cc2cccnc2)c(=O)n(-c2ccccc2)n1C	100	103	-5	-2
CCC(C)NC(=O)Cn1ncn2c(cc3sc(C)cc32)c1=O (stereo unspecified)	103	104	-7	5
CCc1nc(NN)c2c(n1)-c1ccccc1CC21CCCCC1	103	105	-5	-68
COc1ccc(CCNC(=O)CSc2nc(N3CCOCC3)nc(N3CCOCC3)n2)cc1OC	100	104	-4	-13
c1ccc(-c2nnc(SCc3cccnc3)o2)cc1	103	103	-1	-1
CC(C)(C)c1cc(C(=O)NN)n(Cc2ccccc2)n1	102	96	7	8
CN(Cc1cccnc1)C(=O)CNS(=O)(=O)c1ccccc1C#N	100	101	5	-19
O=C(NC(=O)c1ccccc1F)OCc1ccc(Cl)cc1Cl	103	96	1	-21
CC(c1ccccc1)n1c(CCc2ccc(O)cc2)n[nH]c1=S (stereo unspecified)	105	109	-9	1
CCOC(=O)c1oc2ccccc2c1NC(C)=O	103	111	·	0
Cc1ccccc1/C=C1\Sc2ccccc2N(CC(=O)NC(C)c2ccccc2)C1=O (stereo unspecified)	101	108	-3	-21
CCC(C)NC(=O)CSc1nc2n[nH]c(C)c2c(=N)n1-c1ccc(Br)cc1 (stereo unspecified)	102	103	-18	-7
Cc1cc(NCc2cccnc2)n2ncnc2n1	101	103	3	-8
O=C(CSc1ncccn1)n1c2c(c3ccccc31)CCCC2	104	100	-1	-20
O=C(O)C1CCN(c2ncccn2)CC1	104	103	20	-8

As a short view, part of the list above:
SMILES	PV pol inh	PV pol inh intensity	MbtI inh	Mtb MenB inh
Cc1ccccc1/C=C1\Sc2ccccc2N(CC(=O)NC(C)c2ccccc2)C1=O (stereo unspecified)	101	108	-3	-21
CCC(C)NC(=O)CSc1nc2n[nH]c(C)c2c(=N)n1-c1ccc(Br)cc1 (stereo unspecified)	102	103	-18	-7
Cc1cc(NCc2cccnc2)n2ncnc2n1	101	103	3	-8
O=C(CSc1ncccn1)n1c2c(c3ccccc31)CCCC2	104	100	-1	-20
O=C(O)C1CCN(c2ncccn2)CC1	104	103	20	-8

Next part
SMILES	PV pol inh	PV pol inh intensity	MbtI inh	Mtb MenB inh
COc1ccc(C(=O)CCN2CCOCC2)cc1	103	106	·	3
COC(=O)c1ccccc1NC(=O)COc1nc2ccccc2nc1N1CCOCC1	102	96	i	-6
CCNC(=O)C1CC(=O)N(c2ccc(C)cc2)C1 (stereo unspecified)	101	105	·	-20
O=C1Nc2ccccc2-c2ccccc2N1	101	99	111	8
c1ccc(CSC2=NCN(Cc3ccccc3)CN2)cc1	103	100	0	-16
COC(=O)Cn1c(=O)c(=O)n(CC(=O)OC)c2ccccc21	102	108	8	-2
CCc1ccc(CNC(=O)CCc2cn(Cc3ccccc3)c3ccccc23)cc1	104	108	-1	-28
CC1(C)C2CC=C(CNc3ccc4c(c3)OCO4)C1C2 (stereo unspecified)	87	171	-75	-32
CCCNC(=O)c1cc(N(C)S(=O)(=O)c2ccccc2)ccn1	107	103	-29	-15
COc1cc(C(=O)OCn2c(=O)oc3ccccc32)cc(OC)c1OC	104	101	-8	6
O=C1C=C(Cc2ccc(F)cc2)C(=O)c2ccccc21	99	101	50	-26
Cc1cc(-n2c(C)cc(/C=C3\SC(=NC4CCCC4)NC3=O)c2C)no1	101	104	42	-82
C[C@H]1O[C@@H](n2cnc3c(N)ncnc32)[C@H](O)[C@@H]1O	101	101	1	-3
Cc1ccc(-n2cnc3cc(NCc4ccco4)ccc32)cc1	100	100	117	-24
Cc1ccccc1NC(=O)Cn1ncc2ccccc21	101	103	-1	8
COC(=O)C1=CN(C(CC(C)C)C(=O)OC)C=C(C(=O)OC)C1c1ccc(Br)cc1 (stereo unspecified)	104	99	28	1
CCN(CC)S(=O)(=O)c1ccc(NC(=O)Cn2c(=O)cnc3ccccc32)cc1	104	109	-14	-19
O=C(CN1C(=O)NC2(CCCC2)C1=O)c1ccccc1	112	118	-13	-14
O=c1cc[nH]c(=S)[nH]1	99	102	2	-7
CN1CC=C(/C=C/c2ccc(-c3nc4ccccc4s3)o2)CC1	93	182	90	-167
CCOC(=O)Nc1ccc(NC(=O)OCC)cc1	104	103	-5	-4
O=C1NC(=O)N(c2ccccc2)C(=O)/C1=C/c1ccco1	100	104	9	17
Oc1ccccc1-c1nc(-c2ccccc2)no1	104	97	0	-26
Cc1nc2ccccc2c2c1C(=O)CC(c1ccc(F)cc1)=N2	101	100	-8	-25
COCCOC(=O)C1=C(C)NC(C)=C(C(=O)OC(C)C)C1c1cccc([N+](=O)[O-])c1 (stereo unspecified)	100&99&99&100	101&101&101&101	-9&-18&-2	-4&-8&5
CCC(C)[C@@H](C(=O)NCc1ccc(F)cc1)N1Cc2ccccc2C1=O (stereo partly specified)	103	108	-7	-10
COc1ccc(-c2csc(S(C)=O)c2C#N)cc1 (stereo unspecified)	102	104	12	23
O=S(=O)(c1ccccc1)N1CCC(O)C2CCCCC21 (stereo unspecified)	106	106	·	-18
CC(=O)O[C@@H]1[C@@H](OC(C)=O)[C@@H]2OC[C@@H](O2)[C@H]1OC(C)=O	103	105	-3	10
CC1(C)CC(=O)C(N=Nc2ccc3c(c2)OCO3)=C(O)C1	102	102	-8	i
OC1COCc2nc3ccccc3n2C1 (stereo unspecified)	100	101	-3	-15
C=CCn1c(-c2c(C)oc3ccccc23)cs/c1=N\S(=O)(=O)c1cccs1	97	96	2	-40
CC1CCCCN1C(=S)NCc1ccccc1 (stereo unspecified)	109	112	·	-11
CC(C)CCNC(=O)Cn1c(SCc2c(F)cccc2Cl)nc2ccncc21	103	108	4	1
Clc1ccc(OCCn2cnc3ccccc32)cc1	103	104	-5	-4
Cn1nccc1-c1cc(F)cc(F)c1O	101	98	-75	5
N/C(=N\c1nc(-c2cccs2)cc(C(F)(F)F)n1)Nc1cccc(Cl)c1	95	93	-4	-5
CCc1nnc(NC(=O)c2sc3nc4c(cc3c2N)CCCC4)s1	100	109	·	-25
N#CCn1c(C(F)(F)F)nc2c(cnn2-c2ccccc2)c1=O	45	244	-46	0
O=C1C=C(NNC(=O)COc2cccc(F)c2)CCC1	108	114	11	-26

4 compounds drawn at random from those above:
SMILES	PV pol inh	PV pol inh intensity	MbtI inh	Mtb MenB inh
C=CCn1c(-c2c(C)oc3ccccc23)cs/c1=N\S(=O)(=O)c1cccs1	97	96	2	-40
Cc1nc2ccccc2c2c1C(=O)CC(c1ccc(F)cc1)=N2	101	100	-8	-25
CC(=O)O[C@@H]1[C@@H](OC(C)=O)[C@@H]2OC[C@@H](O2)[C@H]1OC(C)=O	103	105	-3	10
Oc1ccccc1-c1nc(-c2ccccc2)no1	104	97	0	-26

Next compounds follow:
SMILES	PV pol inh	PV pol inh intensity	MbtI inh	Mtb MenB inh
COC(=O)/C=C/c1ccc(C(=O)NCC(=O)N[C@@H](CCC(=O)OC)C(=O)N[C@@H](CC(C)C)C(N)=O)cc1	105&104	100&99	-17	-10
O=C(Nc1nc2c(s1)CN(Cc1ccccc1)CC2)C1CCCCC1	103	104	11	·
CN1C(=O)C(O)(CC(=O)c2ccccc2)c2ccccc21 (stereo unspecified)	106	112	·	-10
COc1cc2c(cc1OC)C(c1ccccc1NC(=O)c1cccc(Cl)c1)=NCC2	104	99	1	-7
CCn1cc(C(=O)NCc2ccccc2)c(=O)c2cc(S(=O)(=O)N3CCCC3)ccc21	102	106	1	-5
CC(C)C(=O)NC(=S)Nc1ccc(-c2nc3ncccc3o2)cc1	101	100	-42	-23
COC(=O)Cc1c(C)c2ccc3c(c2oc1=O)CN(Cc1cccc(OC)c1)CO3	102	102	98	-2
CCOC(=O)C(O)(c1ccc(N(CC)C(=O)OC)cc1)C(F)(F)F (stereo unspecified)	101	101	-1	-13
O=C(O)C(C(=O)C1CC1c1ccccc1)=C1SCCS1 (stereo unspecified)	99	102	16	-22
CN(C)Cc1ccccc1CNC(=O)c1ncc(Cl)c(Cl)c1Cl	103	103	-5	-7
CSc1nnc(C)c(=O)[nH]1	104	108	·	-22
CCN(/C=C1/CCCCC1=O)C1CC2CCC1C2 (stereo unspecified)	99	102	1	-25
O=C(NC1CCCC1)C(Sc1ccccc1)c1ccccc1 (stereo unspecified)	100	104	·	-20
O=C(Cn1c(=O)n(CCCC(=O)NC2CCCC2)c(=O)c2ccccc21)NCCC1=CCCCC1	100	100	-8	5
CCc1ccc(NS(=O)(=O)c2c(C)[nH]c(=O)[nH]c2=O)cc1	107	113	11	-15
CCCCC(C(=O)Nc1ccc(F)cc1)N1C(=O)c2ccccc2C1=O (stereo unspecified)	104	104	-3	-13
COc1ccc(CC(=O)NCc2n[nH]c(=S)n2-c2cccc(C)c2)cc1	101	103	27	-42
Cc1ccc(NC(=O)COC(=O)CC2SC(N3CCCC3)=NC2=O)cc1 (stereo unspecified)	98	98	18	10
COc1ccc(/C(C)=N/N2C(=O)c3ccccc3NC2c2ccccc2O)cc1 (stereo unspecified)	107	108	-10	-84
CCc1ccccc1NC(=O)CN1CCN(C(=O)C2CCCN2S(=O)(=O)c2ccc(C)cc2)CC1 (stereo unspecified)	104	96	6	1
CCOC(=O)c1cccnc1SCC(=O)NC(C)CC (stereo unspecified)	102	108	-12	-1
CC(C)OC(=O)CN1CCN(S(=O)(=O)c2ccc(C(C)C)cc2)CC1	104	98	0	3
O=C(NCc1ccccc1)N(Cc1nc2ccccc2c(=O)[nH]1)C1CCCC1	101	102	89	13
N#Cc1nn(-c2ccccc2)c(=O)[nH]c1=O	102	100	-6	1
CCCNC(=O)CN	109	104	-13	-37
CCOC(=O)C1=C(CSc2n[nH]c(N)n2)NC(=O)NC1C (stereo unspecified)	99	96	-3	-21
O/N=C/c1c(F)c(F)c(F)c(F)c1F	106	107	0	-27
CCNC(=S)NCC1CC1	106	108	-4	12
CCn1nc(C)c(C(C#N)N2N=C(C)CC2c2ccccc2)c1C (stereo unspecified)	104	105	-9	-20
COC(=O)C(O)(CC(=O)Nc1cccc(SC)c1)C(F)(F)F (stereo unspecified)	98	101	-19	-2
O=C(O)CNCc1c(Cl)cccc1Cl	100	97	-3	2
Cn1nnnc1NC(=O)c1ccccc1	102	105	-4	-31
Fc1ccccc1CNC1CN2CCC1CC2 (stereo unspecified)	99	102	-3	12
Cc1ccc(/C(C#N)=C\c2cccs2)cc1	105	101	-6	-55
COC(=O)c1c(SCC(=O)NC2CCCCC2)[nH]c2ccccc2c1=O	99	103	-6	-18
Cc1nn(-c2ccccc2)c(Cl)c1C(=O)N1CCN(C)CC1	104	104	-9	·

Screening results as filed in PubChem.
